GLA inh pH 4.5 – qHTS Assay for Inhibitors of Human alpha-Galactosidase at pH 4.5; Alpha-galactosidase A (Homo sapiens), P06280; purified enzyme, 4-MU-alpha-Gal fluorescence, pH 4.5; activity change, negative = inhibition, % at 105 µM; 230,000 tested, under 10 active; inconclusive = small, poorly fitted or top-dose-only inhibition, or a rising curve; inactive = flat fitted curve, though single readings scatter; no compound was filed as active;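 also: 0% = full activity with enzyme and -100% = basal without enzyme; dose as in the result columns while the protocol names 77 µM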
Rango dissoc inh – qHTS Assay for Inhibitors of RanGTP induced Rango (Ran-regulated importin-beta cargo) - Importin beta complex dissociation | Snurportin-1 (Homo sapiens) + GTP-binding nuclear protein Ran (Homo sapiens) + Importin … | Biochemical FRET Rango-importin beta, RanGTP-induced dissociation | Potency, µM (highest dose often 46.1 µM), inactives show at the top dose activity change, negative = inhibition | 0.071% of 340,000 active | AID 540253, 2011; active means falling FRET ratio curve, often poorly fitted, with flat reads before Ran was added; inconclusive means other falling curves, or compound fluorescence or quenching; inactive means flat or rising ratio curve;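 also: potency is read from the fitted curve at half-maximal effect; % of control where 0% means no effect; nearly all actives have a fitted effect of over 45% in size; -100% = wells without RanGTP and RCC1; the record marks most hits as doubtful in a second field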
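FRET read at 45 min, room temperature: inhibitors block the CFP/YFP signal rise when RanGTP (0.6 uM Ran, 2 mM GTP, 0.2 uM RCC1) frees Rango (0.1 uM) from importin beta (0.25 uM). Pre-read after 5 min compound exposure flags interference.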
Rango-impB inh – qHTS Assay for Inhibitors of Rango (Ran-regulated importin-beta cargo) - Importin beta complex formation; Importin subunit beta-1 (Homo sapiens), Q14974; Rango CFP/YFP FRET sensor + importin beta, 45 min; Potency, µM (series often up to 92.2 µM), for the others: at the top dose inhibition of complex formation; 0.031% of 340,000 active; AID 540263, 2011; active = rising FRET ratio curve, often small or poorly fitted; inconclusive = mostly compound fluorescence or quenching in the first reads; inactive = flat curves in all reads;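 also: potency is read from the fitted curve at half-maximal effect; 0% = DMSO wells and 100% = buffer wells lacking importin beta; nearly all actives have a fitted effect of over 15% in size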
Target sequence (Q14974 whole entry, looked up): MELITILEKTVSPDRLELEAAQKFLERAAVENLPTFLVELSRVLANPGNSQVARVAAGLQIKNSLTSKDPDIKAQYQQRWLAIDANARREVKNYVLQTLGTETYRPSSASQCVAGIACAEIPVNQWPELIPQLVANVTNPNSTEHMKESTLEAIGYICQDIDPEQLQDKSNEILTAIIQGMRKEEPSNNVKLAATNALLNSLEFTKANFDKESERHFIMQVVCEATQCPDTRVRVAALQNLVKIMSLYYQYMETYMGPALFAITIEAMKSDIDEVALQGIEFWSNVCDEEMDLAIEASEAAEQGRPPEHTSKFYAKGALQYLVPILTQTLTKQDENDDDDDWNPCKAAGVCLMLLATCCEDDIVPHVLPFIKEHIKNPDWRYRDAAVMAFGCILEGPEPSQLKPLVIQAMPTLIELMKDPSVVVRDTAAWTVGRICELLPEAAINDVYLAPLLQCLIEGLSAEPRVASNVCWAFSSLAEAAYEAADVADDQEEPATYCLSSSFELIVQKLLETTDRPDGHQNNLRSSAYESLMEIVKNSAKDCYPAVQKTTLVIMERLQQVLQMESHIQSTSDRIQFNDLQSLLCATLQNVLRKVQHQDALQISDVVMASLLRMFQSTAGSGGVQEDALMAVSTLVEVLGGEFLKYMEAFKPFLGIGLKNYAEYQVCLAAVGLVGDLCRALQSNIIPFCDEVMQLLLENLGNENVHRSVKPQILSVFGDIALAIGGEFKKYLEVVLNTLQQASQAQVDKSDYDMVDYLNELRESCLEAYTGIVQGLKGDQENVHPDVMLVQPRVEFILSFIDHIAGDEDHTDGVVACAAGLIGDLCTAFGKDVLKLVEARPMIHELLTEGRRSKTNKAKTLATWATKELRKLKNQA
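Inhibition scored from the CFP 486 nm/YFP 530 nm FRET ratio 45 min after adding 0.125 microM importin beta to 50 nM Rango biosensor preincubated 5 min with compound (room temperature, PBS with DTT, Tween-20, BSA). No-importin wells as positive control.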
miR-21 reporter – qHTS Assay for Modulators of miRNAs and/orActivators of miR-21. HeLa miR-21 FLuc reporter, luciferase, 48 h. Potency, µM (highest dose often 38.3 µM), inactives show at the top dose reporter change, positive = more light. 340,000 tested, under 10 active; active = well fitted rising curve with a large enough effect; inconclusive = small, poorly fitted or top-dose-only effect; inactive = no such curve, though single readings can be large or run the other way;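 also: % of control where 0% means no effect; miR-21 action dims this reporter so a rising signal means less miR-21 action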
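Compounds were titrated across several concentrations (up to approximately 40 uM) and incubated 48 hours with HeLa miR-21-FLuc reporter cells (miR-21 target sequence downstream of FLuc, endogenous miR-21). Readout was firefly luciferase luminescence after lytic detection reagent.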
* marks the source's active call; other numbers are inactive results; ? = inconclusive; nt = no result given. This is a subset (hit frequency here may not be typical).

#	Structure	GLA inh pH 4.5	Rango dissoc inh	Rango-impB inh	miR-21 reporter
1	COc1cc(CN2CCC(C(=O)N3CCN(c4ccccc4F)CC3)CC2)cc(OC)c1OC	12	0%	8.7%	-2%
2	O=C(NC1CC2CCCC(C1)N2C(=O)Nc1ccccc1)c1ccncc1 (stereo not given)	-11	5%	-0.4%	-5%
3	CCOc1ccc(C(=O)NCCCn2ccnc2)cc1	1	17%	?	-4%
4	Cc1nc2ccc(NC(=O)c3ccc(S(=O)(=O)N(C)C)cc3)cc2s1	-1	7%	-4.3%	-1%
5	CCc1ccccc1NC(=O)c1cc([N+](=O)[O-])ccc1N1CCOCC1	nt	18%	-0.3%	-8%
6	CC(=O)OC(C(=O)NCCc1ccccc1)c1cccnc1 (stereo not given)	4	0%	-2.8%	-8%
7	Cc1ccc(C(=O)N/N=C/c2ccc(OC(=O)c3ccccc3Cl)cc2)cn1	nt	11%	1.3%	1%
8	O=C(Cn1nc(-c2ccccc2Cl)ccc1=O)Nc1ccccc1-c1ccccc1	4	-13%	-2.0%	-6%
9	NC(=O)C1CCN(C(=O)c2ccc(-c3ccccc3Cl)o2)CC1	nt	?	-6.1%	nt
10	CCc1csc(CCNC(=O)C2CCC(=O)N(Cc3cccc(C(F)(F)F)c3)C2)n1 (stereo not given)	nt	-9%	-1.2%	-3%
11	CC(=O)Oc1cccc(N2C(=O)CC(Nc3ccc(N4CCOCC4)cc3)C2=O)c1 (stereo not given)	-11	-3%	-0.7%	-11%
12	COC(=O)C1=C(C)OC(N)=C(C#N)C1c1ccc(OC)c(CSc2ccccn2)c1 (stereo not given)	-9	-22%	?	-9%
13	O=C(NCCOc1cccnc1)C1CCC(=O)N(Cc2ccccc2F)C1 (stereo not given)	nt	-13%	4.4%	0%
14	Nc1cc(=O)[nH]n1C1CCN(c2ccccc2)CC1	3	-28%	?	1%
15	COc1ccc(/C=N/Nc2nc(-c3ccc(C)cc3)c(C#N)c(=O)[nH]2)cc1	nt	?	?	7%

(more compounds)
#	Structure	GLA inh pH 4.5	Rango dissoc inh	Rango-impB inh	miR-21 reporter
16	CC1CCN(C(=O)CCNS(=O)(=O)c2ccc3c(c2)oc(=O)n3C)CC1	nt	0%	0.9%	4%
17	CCOc1cc(S(=O)(=O)Nc2ccc(Cl)cn2)ccc1F	7	7%	-3.5%	-2%
18	CCN(c1ccccc1)S(=O)(=O)c1ccc(C(=O)N2CCOCC2)cc1	nt	10%	?	nt
19	COc1ccccc1NC(=O)c1ccc2nc(N3C(=O)CCC3=O)sc2c1	7	10%	-0.4%	-22%
20	COc1ccc(CCN(C)C(=O)c2cc(S(=O)(=O)NCc3ccccc3)ccc2C)cc1OC	nt	-2%	0.1%	nt
21	Cc1ccc(/C=C/C(=O)NC(C)c2ccccc2)cc1 (stereo not given)	-20	-23%	2.7%	-12%
22	CNC(=O)C(=O)N/N=C/c1ccccn1	0	11%	-1.2%	5%
23	COc1cc2nc(C3CC3)n(NC(=O)c3ccc(F)cc3)c(=O)c2cc1OC	-6	-5%	-1.9%	4%
24	C/C(=N/N=C(/N)SCc1ccccc1)C(C)(C)C	7	-13%	4.4%	-32%
25	O=S(=O)(c1ccc(NCCOCCO)nc1)N1CCCCC1	nt	6%	1.5%	nt
26	CCOc1ccccc1C(C(=O)NCCOC)N(CCOC)C(=O)Cn1nnc2ccccc21 (stereo not given)	5	-10%	0.6%	2%
27	COc1ccc(Cl)cc1C(=O)NCCN1CCOCC1	nt	5%	-2.0%	-5%
28	COC(=O)Cn1cnc2c(Cl)nc(F)nc21	nt	8%	-2.8%	nt
29	CC(=O)c1nccs1	nt	3%	-3.2%	nt
30	COc1ccc(C(=O)OCC(=O)N2CCCCC2)cc1[N+](=O)[O-]	14	19%	?	-5%

(further entries)
#	Structure	GLA inh pH 4.5	Rango dissoc inh	Rango-impB inh	miR-21 reporter
31	COC(=O)C(C)N1C(=O)S/C(=C/c2cc(C)n(C(C)C)c2C)C1=O (stereo not given)	0	?	?	-33%
32	Cc1ccc(C(=O)CN(C(=O)c2ccc(Cl)cc2)N2C(=O)CCC2=O)cc1	-3	10%	-2.9%	-1%
33	O=C1CC(c2nc3ccccc3[nH]2)CN1c1ccccc1 (stereo not given)	8	1%	-0.1%	-3%
34	COC(=O)c1[nH]c(C)c(/C(O)=C2\C(=O)C(=O)N(CCN(C)C)C2c2ccccc2OC)c1C (stereo not given)	-2	2%	?	4%
35	O=C(c1cc2cc(Br)ccc2o1)N1CCOCC1	-2	-7%	-2.5%	-38%
36	CCCCn1cc(C(C)(C)C)c(C#N)c1NC(C)=O	0	0%	0.9%	-6%
37	CC1CCc2c(sc(NC(=O)CSc3nnc(-c4ccccc4)o3)c2C#N)C1 (stereo not given)	?	9%	0.4%	-21%
38	Cc1cc(NC(=O)CCC(=O)N(Cc2ccco2)C2(C(=O)NC3CCCC3)CCCCC2)no1	nt	1%	?	7%
39	COc1cc(NC(=O)C2=CC(c3cccs3)=NS(=O)(=O)N2C)cc(OC)c1OC	nt	-17%	8.4%	18%
40	Nc1nn(-c2cccc(F)n2)cc1-c1ccc(Cl)cc1	10	-18%	-2.5%	-28%
41	O=C(COC(=O)c1cccc(-n2cnnn2)c1)Nc1c(Cl)cccc1C(F)(F)F	nt	15%	3.9%	0%
42	Cc1cc(OCC(=O)OCC(=O)c2c(N)n(C)c(=O)n(C)c2=O)ccc1Cl	nt	-15%	2.9%	nt
43	CC(C)[C@H](CN1CCC[C@H]1CN1C(N)=NC[C@H]1C(C)C)N1C[C@@H](Cc2ccccc2)N(CCCC2CCCC2)C1=N	nt	9%	0.8%	nt
44	COc1ccc(Cl)cc1NC(=O)CN(C)CC(=O)N(CC(C)C)c1c(N)n(CC(C)C)c(=O)[nH]c1=O	nt	1%	-2.6%	nt
45	CCCOc1ccc(N2C(=O)C3ON(c4ccccc4)C(c4ccc(O)c(OC)c4)C3C2=O)cc1 (stereo not given)	-2	21%	9.1%	-2%

No new results follow: entries from further up.
#	Structure	GLA inh pH 4.5	Rango dissoc inh	Rango-impB inh	miR-21 reporter
33	O=C1CC(c2nc3ccccc3[nH]2)CN1c1ccccc1 (stereo not given)	8	1%	-0.1%	-3%
34	COC(=O)c1[nH]c(C)c(/C(O)=C2\C(=O)C(=O)N(CCN(C)C)C2c2ccccc2OC)c1C (stereo not given)	-2	2%	?	4%
35	O=C(c1cc2cc(Br)ccc2o1)N1CCOCC1	-2	-7%	-2.5%	-38%
36	CCCCn1cc(C(C)(C)C)c(C#N)c1NC(C)=O	0	0%	0.9%	-6%
37	CC1CCc2c(sc(NC(=O)CSc3nnc(-c4ccccc4)o3)c2C#N)C1 (stereo not given)	?	9%	0.4%	-21%
38	Cc1cc(NC(=O)CCC(=O)N(Cc2ccco2)C2(C(=O)NC3CCCC3)CCCCC2)no1	nt	1%	?	7%
39	COc1cc(NC(=O)C2=CC(c3cccs3)=NS(=O)(=O)N2C)cc(OC)c1OC	nt	-17%	8.4%	18%
40	Nc1nn(-c2cccc(F)n2)cc1-c1ccc(Cl)cc1	10	-18%	-2.5%	-28%
41	O=C(COC(=O)c1cccc(-n2cnnn2)c1)Nc1c(Cl)cccc1C(F)(F)F	nt	15%	3.9%	0%
42	Cc1cc(OCC(=O)OCC(=O)c2c(N)n(C)c(=O)n(C)c2=O)ccc1Cl	nt	-15%	2.9%	nt
43	CC(C)[C@H](CN1CCC[C@H]1CN1C(N)=NC[C@H]1C(C)C)N1C[C@@H](Cc2ccccc2)N(CCCC2CCCC2)C1=N	nt	9%	0.8%	nt
44	COc1ccc(Cl)cc1NC(=O)CN(C)CC(=O)N(CC(C)C)c1c(N)n(CC(C)C)c(=O)[nH]c1=O	nt	1%	-2.6%	nt
45	CCCOc1ccc(N2C(=O)C3ON(c4ccccc4)C(c4ccc(O)c(OC)c4)C3C2=O)cc1 (stereo not given)	-2	21%	9.1%	-2%

Carrying on:
#	Structure	GLA inh pH 4.5	Rango dissoc inh	Rango-impB inh	miR-21 reporter
46	COC(=O)c1ccc(C(=O)Nc2nc3cc(N)c(C)cc3s2)cc1	nt	7%	-2.2%	-9%
47	Cc1sc(NC(=O)/C=C/C(=O)O)c(C(N)=O)c1-c1ccc(C(C)(C)C)cc1	4	3%	1.0%	-51%
48	CC1(C)CC(=O)C=C(NNC(=O)c2ccc(N)cc2)C1	3	-5%	1.8%	-11%
49	CN(C(=O)C1CCCN1S(=O)(=O)c1ccc(Cl)cc1)c1ccccc1 (stereo not given)	nt	6%	-4.1%	nt
50	CC1CCCC(NC(=O)COC(=O)[C@@H](NC(=O)c2ccc(F)cc2)C(C)C)C1C (stereo not given in full)	nt	-4%	-1.3%	nt
51	O=C(Nc1cc([N+](=O)[O-])ccc1F)c1ccc2ccccc2c1	nt	-14%	2.8%	-13%
52	COc1ccc(CCn2c(C)ccc2C)cc1OC	1	nt	nt	-6%
53	Cc1ccnc(NC(=O)CCC(=O)N(CC(=O)NCc2ccc(F)cc2)c2ccc(F)cc2)c1	nt	?	?	-1%
54	CCOC(=O)Cc1csc(NC(NC(=O)OCC)(C(=O)OCC)C(F)(F)F)n1 (stereo not given)	nt	2%	-3.8%	nt
55	O=C(Cc1ccccc1)Nc1c(Cl)ccc2nsnc12	0	-2%	0.1%	3%
56	O=[N+]([O-])c1ccc(N2CCN(CCO)CC2)cc1Sc1ccccn1	-9	-21%	1.4%	-3%
57	COC(=O)c1ccc(OC(=O)c2ccc(OC)cc2)c(OC)c1	-3	-3%	0.2%	-3%
58	Cc1ccc(NC(=O)CSc2n[nH]c(-c3ccco3)n2)cc1	-1	-1%	-1.7%	-45%
59	O=C(NCCCN1CCCC1=O)c1cccs1	2	-2%	0.5%	1%
60	Cc1c(Cl)ccc2sc(NC(=O)CN3C(=O)c4ccccc4C3=O)nc12	1	7%	2.2%	-10%

(list continues)
#	Structure	GLA inh pH 4.5	Rango dissoc inh	Rango-impB inh	miR-21 reporter
61	O=C(COC(=O)c1cc(=O)[nH]c2ccc(Br)cc12)c1ccccc1	-1	-8%	?	-3%
62	C=CCOC(=O)C1=C(C)NC(C)=C(C(=O)OCC=C)C1c1cn(-c2ccccc2)nc1-c1ccco1	14	19%	2.2%	-8%
63	Cc1csc2nc(O)c(C(=O)NCCCc3ccccc3)c(=O)n12	nt	1%	2.0%	nt
64	CC(C(=O)N1CCCc2ccccc21)N1C(=O)c2ccccc2C1=O (stereo not given)	-7	-4%	0.3%	-9%
65	CCOC(=O)c1cc(C(=O)Nc2ccccc2F)nn1C	-14	6%	?	-64%
66	CC(C)=CCC/C(C)=C/CCC(C)NCCN1CCNCC1 (stereo not given)	-4	nt	nt	-24%
67	O=[N+]([O-])c1cccc(/C=C/c2nc[nH]c2[N+](=O)[O-])c1	-9	14%	-1.2%	-9%
68	O=C(CN1CCN(C(=O)c2ccco2)CC1)N1CCc2[nH]c3ccccc3c2C1	-1	?	?	-1%
69	CSc1ccc(CN(C)CC(=O)Nc2ccc(NC(C)=O)cc2)cc1	6	-4%	-0.7%	-4%
70	CSCCC(NC(=O)c1ccccc1Cl)C(=O)N1CCN(C(C)=O)CC1 (stereo not given)	nt	3%	-2.7%	nt
71	Cc1ccc(NC(=O)C2=CCN(S(=O)(=O)c3ccc(F)cc3)CC2)cc1	1	3%	-2.1%	-17%
72	COc1ccccc1CNC(=O)COC(=O)CSc1ccc(F)cc1	nt	7%	1.5%	nt
73	O=S1(=O)N=C(c2ccccc2)c2ccccc21	nt	0%	3.3%	nt

Screening results: PubChem BioAssay, National Center for Advancing Translational Sciences (NCATS)
